# Screening data as filed in PubChem.
# gsp agonist – gsp mutant agonism; gsp mutant cells, cAMP HTRF, 30 min; control for the full effect not named in the record; Potency, µM (titrated, usually from 76.9 µM), inactives show top-dose activation (cAMP increase), hits mostly activators; 340,000 compounds, 0.13% hits; active = well fitted activation curve with a large enough effect; inconclusive = small, poorly fitted or top-dose-only effect, or another doubt; inactive = no such curve, though single readings can be large or run the other way; cell line not stated here;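 note: phosphodiesterase inhibitor Ro 20-1724 added with compounds to block cAMP breakdown; potency is the fitted concentration of half-maximal effect; nearly all actives have a fitted effect of over 60% in size; about a fifth of the inactives were tested at one dose only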
#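 Cells in DMEM/10% FBS with G418 were pretreated with compounds in DMSO plus […] (300 uM stock) for 30 min at 37C. cAMP was measured by HTRF (cAMP-d2 plus anti-cAMP antibody-K) after 30 min at room temperature.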
# Sfp inh – Sfp phosphopantetheinyl transferase inhibition | Q9F4F7 | Biochemical Sfp PPTase activity, qHTS | Potency, µM, without a hit: max response, negative = inhibition, actives largely listed as inhibitors | 310,000 compounds, 3.5% hits; active = well fitted inhibition curve with a large enough effect; inconclusive = small, poorly fitted or top-dose-only effect, or another doubt; inactive = no such curve, though single readings can be large or run the other way;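 note: the enzyme is Sfp with the accession as filed and its product quenches rhodamine fluorescence; potency is the fitted concentration of half-maximal effect; 0% = enzyme reaction without inhibitor and -100% = no enzyme wells; top concentration of the series not given in the record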
#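 Buffer: 50 mM Hepes-Na pH 7.6, 10 mM MgCl2, 0.01% Nonidet P-40, 0.01% BSA. Enzyme 15 nM, pre-exposed to compound 15 min; substrates then added and fluorescence change tracked over 30 min.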
# ClpP mod – qHTS Assay for Activators of ClpP. ATP-dependent Clp protease proteolytic subunit (Bacillus subtilis (strain 168)), P80244. 340,000 compounds, 1.9% hits. AID 651965, 2013. Potency, µM (top dose mostly 57.5 µM), for inactives: top-dose activity change, negative = active. purified B. subtilis ClpP, FRET peptide cleavage, 20 min; active = well fitted falling curve with a large enough effect; inconclusive = small, poorly fitted or top-dose-only effect; inactive = no such curve, though single readings can be large or run the other way; note: potency is the fitted concentration of half-maximal effect; the source files actives as falling curves though it sought activators and does not explain the sign; nearly all actives have a fitted effect of over 65% in size; many hits overshoot -100%
# Target sequence (P80244 whole entry, looked up): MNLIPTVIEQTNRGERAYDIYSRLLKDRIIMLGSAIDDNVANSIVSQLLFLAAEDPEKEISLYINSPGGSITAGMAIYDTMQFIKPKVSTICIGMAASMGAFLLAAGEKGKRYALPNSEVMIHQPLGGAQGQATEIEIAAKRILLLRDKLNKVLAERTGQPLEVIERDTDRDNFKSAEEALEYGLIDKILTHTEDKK
#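 Purified B. subtilis ClpP, 10 microg/mL final in Tris/HCl pH8 with KCl, BSA, glycerol and Tween-20, cleaved an Abz/nitrotyrosine-quenched decapeptide. Fluorescence (ex 320, em 430) was read at 0 and 20 min at room temperature. Delta was normalized to 5.8 microM ADEP and DMSO/no-enzyme controls.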
# TRPV1 PAM – human TRPV1 potentiation | Q8NER1 | TRPV1-expressing cells, Fluo-8 calcium influx, capsaicin EC20 potentiation; host cell line not named in the record; control for the full effect not named in the record | potentiation, % at 8.33 µM | 320,000 compounds, 0.02% hits; active means potentiation above 80%; inconclusive means 30% to 80%; inactive means below 30%; note: 0% is about no effect
#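 TRPV1-expressing cells were cultured overnight at 35.5C and loaded with Fluo-8 calcium dye for 40 to 90 min at room temperature. After a 10 s baseline, compound was added and calcium influx was read kinetically for 3 min (ex 480/em 520 nm).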
# Menin-MLL FL inh – inhibitors of human menin-MLL interaction, wild-type MLL peptide | Fluorescence polarization, fluorescein-MLL peptide displacement from menin | FP activity change, % at 61.4 µM | 290,000 tested, under 10 active; inconclusive = falling polarisation curve, or a change in total fluorescence; inactive = total fluorescence flat and polarisation flat or rising; no compound was filed as active; the % refers to the polarisation; negative = inhibition;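 note: % of control where 0% means no effect; inhibitors lower the polarisation; unlabelled MLL peptide was the positive control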
# TRPML1 inh – human mucolipin-1 channel inhibition; 390,000 compounds, 0.02% hits; activity change, negative = inhibition, % (concentration not given with the values); Q9GZU1; TRPML1-inducible cells, Ca2+ dye fluorescence, FDSS; active compounds read low; inhibition of EC80 agonist-evoked calcium signal; in the data active means activity change below about -50%; inconclusive means about -30% to -50%; inactive means above about -30%;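 note: stimulus is agonist 54-4 at its EC80 concentration; % is set by controls: 0 for no effect and ±100 for the full control effect; the text of the record puts the active cut at -80%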
# Target sequence (Q9GZU1 whole entry, looked up): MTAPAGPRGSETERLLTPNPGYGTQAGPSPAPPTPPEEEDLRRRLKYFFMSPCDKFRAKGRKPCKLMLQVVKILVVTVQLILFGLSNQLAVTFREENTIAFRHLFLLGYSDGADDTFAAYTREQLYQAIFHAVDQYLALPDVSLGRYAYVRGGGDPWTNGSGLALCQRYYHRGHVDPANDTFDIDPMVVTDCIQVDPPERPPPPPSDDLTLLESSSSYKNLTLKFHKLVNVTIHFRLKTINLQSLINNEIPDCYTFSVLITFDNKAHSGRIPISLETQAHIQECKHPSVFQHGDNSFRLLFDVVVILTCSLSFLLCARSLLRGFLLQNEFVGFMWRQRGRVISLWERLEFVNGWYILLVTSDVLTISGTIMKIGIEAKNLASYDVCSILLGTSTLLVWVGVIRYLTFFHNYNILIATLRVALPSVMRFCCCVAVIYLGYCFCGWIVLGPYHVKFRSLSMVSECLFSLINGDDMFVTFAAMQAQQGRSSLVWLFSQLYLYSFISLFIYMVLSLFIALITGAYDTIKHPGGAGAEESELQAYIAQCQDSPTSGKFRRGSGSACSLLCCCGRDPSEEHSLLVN
#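 TRPML1-DL cells, Tet-induced overnight (~16 h, 37 °C) at 1,500 cells/well, were loaded with Ca8 no-wash dye plus quencher for 45-90 min at room temperature. Compounds were pinned during FDSS kinetic reading; agonist 54-4 at EC80 (4 uM final) then added.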
# gsp antagonist – antagonists of gsp mutant (McCune-Albright syndrome). gsp-mutant cells, cAMP HTRF, 30 min; control for the full effect not named in the record. Potency, µM (top dose mostly 76.9 µM), for the others: top-dose activity change, negative = inhibition, hits mostly inhibitors. 340,000 compounds, 0.4% hits; active = falling curve of any shape with a large fitted effect; inconclusive = falling curve, mostly with a smaller effect; inactive = flat or rising curve; cell line not stated here;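 note: intracellular cAMP measured with PDE inhibitor Ro 20-1724 present during compound exposure; potency is the fitted concentration of half-maximal effect; % is set by controls: 0 for no effect and ±100 for the full control effect; nearly all actives have a fitted effect of over 65% in size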
#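 G418-selected cells were plated in DMEM/10% FBS for 16-24 h at 37C, then treated with compounds plus the PDE inhibitor […] (300 uM solution added) for 30 min at 37C. Intracellular cAMP was measured by HTRF after 30 min lysis at room temperature.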
# An asterisk follows results filed as active; ? = inconclusive; nt = no result given; & = joins results of further samples; [ ] = another dose, or the depositor's remark.
# Order of values: gsp agonist	Sfp inh	ClpP mod	TRPV1 PAM	Menin-MLL FL inh	TRPML1 inh	gsp antagonist
Cc1ccc(S(=O)(=O)N2CCCCC2c2cccnc2)c(C)c1C (stereo not given)
 : -7%	-17%	1.9%	nt	-1.3	10	-10%
COc1ccc(N2CCN(C(=O)CN(C)S(=O)(=O)c3ccc4c(c3)c(=O)n(C)c(=O)n4C)CC2)cc1
 : 6%[15.4 µM]	16%	nt	1	8.0	17	nt
Cc1ccc(-c2nn(-c3ccccc3)cc2C2CC(c3cccs3)=NN2C(=O)CCCC(=O)O)cc1 (stereo not given)
 : 5%	-14%	-26%	3	0.8	6	?
COc1ccc(CNC(=O)CCSCc2ccccc2C)cc1
 : -13%[15.4 µM]	-20%	nt	-26	1.2	3	3%
COCC(=O)N(C)C1(c2nnnn2CCOC(=O)Nc2cccc3ccccc23)CCCC1
 : 11%	12%	-16%	?	1.2	-14	-5%
C/C(=N\NC(=O)OC(C)(C)C)c1ccccc1Br
 : -3%[15.4 µM]	1%	nt	17	-2.3	-2	-2%
CC(C)CCn1c(O)c(N=Nc2ccccn2)c2ccccc21
 : -23%	-16%	-1.6%	-23	-2.1	19	-21%
Nc1nc(C(F)(F)F)cc(=O)[nH]1
 : -23%	3%	-1.0%	-3	4.3	-4	11%
CN(C)S(=O)(=O)c1ccc(Cl)c(C(=O)NC2CCN(Cc3ccccc3)C2)c1 (stereo not given)
 : -16%[15.4 µM]	-1%	nt	1	-0.7	15	6%
Cc1c(NC(=O)c2cc(-c3ccc4c(c3)OCO4)on2)c(=O)n(-c2ccccc2)n1C
 : -26%	8%	-0.6%	12	-1.3	-1	-9%
Cc1ccc(S(=O)(=O)N2CCN(C(=O)CCn3nc(C)c(C)c3C)CC2)cc1
 : 13%[15.4 µM]	12%	nt	-9	-2.8	23	-4%
Cc1ccc(O)c(CCc2ccc(O)cc2)n1
 : ?	-6%	nt	-13	1.3	-5	3%
CC(=O)c1ccc(NC(=O)COC(=O)CC2CC3CCC2C3)cc1 (stereo not given)
 : 0%	nt	1.0%	nt	nt	1	21%
O=C(CSc1nnc(COc2ccccc2Cl)o1)Nc1ccccc1
 : -32%[inhibitor]	nt	-1.0%	5	nt	3	6%
O=C(Nc1ccccc1)c1nc[nH]c1C(=O)NCCNC(=O)c1[nH]cnc1C(=O)Nc1ccccc1
 : -20%	nt	3.6%	nt	nt	-11	0%
COc1ccccc1NC(=O)N(C)C[C@H]1OCc2cnnn2CCCC(=O)N([C@@H](C)CO)C[C@H]1C
 : -71%[inhibitor]	nt	-3.6%	nt	nt	-15	nt
C=CCn1c(SCC(=O)NC2CC2)nnc1-c1cccs1
 : ?	18%	-2.7%	-1	nt	-3	12%
O=[N+]([O-])c1ccc(N2CCN(c3ccccc3)CC2)cc1
 : -1%	10%	-1.2%	5	0.1	-1	9%
COc1ccc(Cc2nnc(NS(=O)(=O)Cc3ccccc3)s2)cc1
 : -48%[inhibitor]	5%	-2.5%	14	0.0	37	?
NC(=O)c1c(NC(=O)CCCn2cnc([N+](=O)[O-])n2)sc2c1CCCC2
 : 16%[15.4 µM]	7.9µM*	nt	-3	2.6	4	2%
COc1ccc(CCOC(=O)c2cccc(NC(C)=O)c2)cc1
 : ?	9%	0.6%	-10	nt	71	1%
O=C(N/N=C/c1cc(Cl)ccc1O)c1ccc(Br)cc1
 : -68%[inhibitor]	6%	2.2%	11	?	11	-3%
CN1CCN(C(=O)c2cn(-c3ccccc3)nc2-c2cccnc2)CC1
 : -13%	7%	-1.0%	3	4.1	-11	9%
COc1cccc(C2Nc3ccc4ccccc4c3C3=C2C(=O)CCC3)c1O (stereo not given)
 : -1%[15.4 µM]	4%	-0.8%	-4	28	-10	9%
COc1ccc(CCNC2CC(=O)N(CCc3ccc(OC)c(OC)c3)C2=O)cc1 (stereo not given)
 : 0%	-9%	-3.9%	-7	2.8	-4	4%
CC(C)Cc1nc2n[nH]c(N)c2c2c1COC(C)(C)C2
 : 14%	20%	-15%	5	-1.3	6	-1%
COc1ccc(NC(=O)CN(C)C(=O)c2cccc(S(=O)(=O)N3CCN(C)CC3)c2)cc1
 : 31%[15.4 µM]	nt	nt	-1	nt	4	9%
CC(=O)Nc1nnc(-c2c(-c3c(Cl)cccc3Cl)noc2C)o1
 : 0%[15.4 µM]	12%	nt	nt	-1.4	2	-9%
COc1ccc(-c2cc(C(=O)N/N=C/c3cccnc3)c3ccccc3n2)cc1
 : -31%[inhibitor]	20%	-9.4%	8	nt	-8	-5%
Cc1cccc(NS(=O)(=O)c2cccc3cccnc23)n1
 : -44%[inhibitor]	7%	0.3%	12	3.5	-1	2%

# Arranged by SMILES length (descending): part of the list above.
# Order of values: gsp agonist	Sfp inh	ClpP mod	TRPV1 PAM	Menin-MLL FL inh	TRPML1 inh	gsp antagonist
Cc1c(NC(=O)c2cc(-c3ccc4c(c3)OCO4)on2)c(=O)n(-c2ccccc2)n1C
 : -26%	8%	-0.6%	12	-1.3	-1	-9%
Cc1ccc(S(=O)(=O)N2CCN(C(=O)CCn3nc(C)c(C)c3C)CC2)cc1
 : 13%[15.4 µM]	12%	nt	-9	-2.8	23	-4%
O=[N+]([O-])c1ccc(N2CCN(c3ccccc3)CC2)cc1
 : -1%	10%	-1.2%	5	0.1	-1	9%

# Continued:
# Order of values: gsp agonist	Sfp inh	ClpP mod	TRPV1 PAM	Menin-MLL FL inh	TRPML1 inh	gsp antagonist
O=[N+]([O-])c1ccc(Cl)c2cccnc12
 : -40%[inhibitor]	-4%	nt	8	-2.1	-14	4%
C[C@H](CO)N1C[C@H](C)[C@H](CN(C)C(=O)NC2CCCCC2)Oc2ncc(Br)cc2C1=O
 : 0%	nt	-2.5%	nt	nt	8	nt
O=C(CCSCc1ccccc1Cl)NC1CCCCC1
 : 12%[15.4 µM]	0%	nt	-3	-0.8	-17	-11%
O=c1c(-c2ccc(Cl)cc2)[n+]([O-])c2ccccc2n1OCc1nc2ccccc2[nH]1
 : 16%	-11%	nt	-18	0.1	1	-7%
Cc1cc(C)cc(C(=O)NCC(=O)N(C)CCOc2ccccc2)c1
 : -24%	nt	-0.1%	2	nt	-8	-3%
CCN(CC(=O)NCc1cccs1)C(=O)c1ccc(N(C)S(=O)(=O)c2ccc(C)cc2)cc1
 : 1%	nt	-1.7%	nt	nt	21	-20%
CCCCN(CCCNC(=O)C1CCN(C(=O)c2cc3sccc3n2C)CC1)Cc1ccccc1
 : 1%	4%	0.2%	-12	1.2	5	11%
COC(CNS(=O)(=O)c1cccc2nonc12)OC
 : -12%[15.4 µM]	18%	nt	2	-0.8	22	-1%
Cc1cc(C)nc(OC(C(=O)O)C(OCCc2ccccc2)(c2ccc(F)cc2)c2ccc(F)cc2)n1 (stereo not given)
 : -2%	14%	-1.0%	10	3.1	-6	-6%
COc1ccc(CCC(=O)N/N=C(\C)c2ccc3c(c2)OCO3)cc1
 : -4%	16%	-1.7%	-10	nt	38	0%
CCOC(=O)c1sc2nc(CSc3nc4ccccc4n3CC)[nH]c(=O)c2c1C
 : -4%	9%	0.8%	-27	-0.3	12	9%
Cc1ccc(NC(=O)CCc2ccccc2)cc1C
 : 4%	nt	-0.5%	nt	nt	-13	nt
O=C(COC(=O)C12CC3CC(CC(O)(C3)C1)C2)NC12CC3CC(CC(C3)C1)C2
 : 0%[15.4 µM]	-7%	nt	7	-3.8	0	-1%
CCSc1nnc(NC(=O)C2(C)Cc3ccccc3C(=O)O2)s1 (stereo not given)
 : 30%	-12%	-0.8%	3	-1.1	12	-14%
Cc1ccc2cc(S(=O)(=O)NCCCC(=O)O)ccc2c1
 : 23%	20%	-2.8%	-1	-7.5	-9	-1%
Cc1ccc(OCCC(=O)OCC(=O)NC2CCCC(C)C2C)cc1 (stereo not given)
 : 2%	nt	0.6%	nt	nt	21	3%
Cc1ccc(N/N=C(\C#N)C(N)=S)c(C)c1
 : 8%[15.4 µM]	?	nt	-7	16	14	-7%
COc1ccc(S(=O)(=O)NCC(c2ccco2)N2CCOCC2)cc1 (stereo not given)
 : 10%	nt	-0.3%&-0.9%	-13	nt	14&-7	6%
COc1ccc(C=NNc2ccc([N+](=O)[O-])cn2)cc1
 : -5%	nt	nt	nt	nt	1	6%
CCOC(=O)C1=C(COC(=O)CNS(=O)(=O)c2ccc(C)cc2)NC(=O)NC1C (stereo not given)
 : -13%[15.4 µM]	19%	-1.0%	7	nt	-3	11%
CC(C)NC(=O)Cn1c(SCC(=O)N2CCCCCC2)nc2ccccc21
 : 11%	9%	0.2%	-13	-3.3	2	9%
CCC(CO)Oc1cc(NC(=O)c2ccccc2F)c2ncn(C(C)C)c2c1 (stereo not given)
 : nt	nt	-5.2%	nt	nt	1	1%
CN1C[C@@H]2C(c3ccc(Cl)nc3)C3(c4ccc(C#N)cc4)CC2(C3)[C@H]1c1ccccc1 (stereo not given in full)
 : nt	34%&3%[activator]	-1.3%	-19	1.6&5.0	-6	-15%
COc1cc(C(=O)N2CCN(C3=NS(=O)(=O)c4ccccc43)CC2)cc(OC)c1OC
 : 2%	nt	-3.5%	nt	nt	5	nt
O=C(c1ccc([N+](=O)[O-])s1)N1CCN(c2ccc(C(F)(F)F)cn2)CC1
 : -11%[15.4 µM]	11%	nt	-32	2.6	10	-2%
Clc1ccc(CCNc2ncnc3c2nnn3Cc2ccccc2)cc1
 : 4%[15.4 µM]	11%	-1.7%	9	4.8	4	-2%
O=C(OCCN1CCN(c2ncc(C(F)(F)F)cc2Cl)CC1)c1ccc(Cl)cc1
 : ?	1%	-0.2%	?	-0.4	-9	-6%
Cc1[nH]n(-c2nc(-c3ccc(Cl)cc3)cs2)c(=O)c1N=Nc1ccc(O)cc1
 : 11%[15.4 µM]	-7%	nt	-5	-3.0	1	-48%
CCOC(=O)c1nonc1NC(C)=O
 : -10%	28%	-1.7%	-1	0.0	16	11%
Cc1cc(C)n2nc(SCC(N)=O)nc2n1
 : -2%[15.4 µM]	14%	nt	4	-1.2	8	3%
